# Vaccinia inh: Vaccinia orthopox stage-specific inhibition | Vaccinia-infected cells, mCherry/Venus stage reporter fluorescence; hits give low values; some inactives read as strong as hits | activity change (mCherry), % (concentration not given with the values) | 89,000 compounds, 0.01% hits | AID 1053133;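 active means mCherry past -33% and 40 or more points under the early reporter, replicates agreeing; inconclusive means past -33% without that gap or agreement; tested in A549 cells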;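 further: scaled between vehicle wells and reference inhibitor wells; 23 nL library stock went into each well; one replicate is shown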
# Vaccinia inh Venus: further read-out of Vaccinia inh, marked with its call; activity change (Venus), %; measured here: Venus reporter, other viral stage;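 negative = less Venus signal; first of two replicates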
# * hit, by the source's call; ? = inconclusive; · = no result given.
SMILES,Vaccinia inh,Vaccinia inh Venus
C[C@@H]1CN([C@H](C)CO)C(=O)c2cc(NC(=O)Nc3ccc(F)cc3)ccc2O[C@@H](C)CCCCO[C@H]1CN(C)Cc1ccc(C(F)(F)F)cc1,?,·
N#Cc1cccc(-c2ccc(C3[C@@H]4CN(C(=O)C5CCC5)C[C@H]3N4)cc2)c1 (stereo partly drawn),?,9
O=C(N[C@@H]1CC[C@@H](CCNS(=O)(=O)Cc2ccccc2)O[C@@H]1CO)c1ccc2c(c1)OCO2,-8,5
C/C=C/c1ccc([C@@H]2[C@H]3CN(C(=O)Cc4cccnc4)CC(=O)N3[C@H]2CO)cc1,-3,-1
C[C@@H]1CN([C@H](C)CO)C(=O)Cc2cc(NC(=O)Nc3ccccc3)ccc2O[C@@H]1CN(C)S(=O)(=O)c1cccs1,-5,-8
O=C(c1cccnc1)N1CC(=O)N2[C@H](CO)[C@H](c3ccc(-c4ccccc4F)cc3)[C@H]2C1,5,13
C[C@H](NC(=O)C[C@@H]1C=C[C@H](NC(=O)CN2CCOCC2)[C@H](CO)O1)c1ccccc1,7,9
N#C[C@H]1[C@H](c2ccc(C#Cc3ccccc3F)cc2)[C@H](CO)N1C(=O)c1cccnc1,-28,-24
CO[C@H]1CN(C)C(=O)c2cc(NC(=O)Nc3cc(F)ccc3F)ccc2OC[C@H](C)N(C(=O)c2ccccn2)C[C@H]1C,9,-3
COc1ccccc1S(=O)(=O)N1CC[C@H]2[C@H](CO)Nc3ccc(-c4ccccc4F)cc3[C@H]21,-30,-23
COc1ccc(S(=O)(=O)Nc2cccc3c2O[C@@H](CN(C)Cc2ccccc2)[C@H](C)CN([C@@H](C)CO)C3=O)cc1,10,6
Cc1ccc(S(=O)(=O)N[C@H]2CC[C@H](CCNC(=O)CN3CCOCC3)O[C@H]2CO)cc1,-13,-3
C[C@H](CO)N1C[C@H](C)[C@H](CN(C)S(=O)(=O)c2ccccc2)Oc2ncc(-c3cccc(C(=O)N(C)C)c3)cc2C1=O,11,10
CCC(=O)N1[C@H](CO)[C@@H]2c3ccccc3N(S(=O)(=O)c3ccc(F)cc3)C[C@@H]21,-1,4
C[C@@H]1CCCCO[C@@H](CN(C)C(=O)c2ccncc2)[C@H](C)CN([C@H](C)CO)C(=O)c2cc(N(C)C)ccc2O1,13,12
COc1ccc(CN(C)C[C@H]2OCCCC[C@H](C)Oc3ccc(N(C)C)cc3C(=O)N([C@@H](C)CO)C[C@@H]2C)cc1,?,·
COc1ccc(NC(=O)Nc2ccc3c(c2)C(=O)N([C@@H](C)CO)C[C@@H](C)[C@@H](CN(C)CC2CCCCC2)OCCCC[C@H](C)O3)cc1,-9,-13
COCCNC(=O)[C@H]1[C@H](CO)[C@H]2Cn3c(ccc(C4=CCCCC4)c3=O)[C@@H]1N2C(=O)C1CCC1,-2,-3
C[C@@H]1CN([C@H](C)CO)C(=O)c2cccc(NC(=O)Nc3ccc4c(c3)OCO4)c2O[C@@H]1CN(C)C(=O)Nc1ccc2c(c1)OCO2,-10,-7
COc1ccc(CN(C)C[C@@H]2Oc3ccc(NC(=O)Nc4cccc5ccccc45)cc3C(=O)N([C@H](C)CO)C[C@H]2C)cc1,-20,-12

# A second format for part of the listing above:
mol	Vaccinia inh	Vaccinia inh Venus
Cc1ccc(S(=O)(=O)N[C@H]2CC[C@H](CCNC(=O)CN3CCOCC3)O[C@H]2CO)cc1	-13	-3
C[C@H](CO)N1C[C@H](C)[C@H](CN(C)S(=O)(=O)c2ccccc2)Oc2ncc(-c3cccc(C(=O)N(C)C)c3)cc2C1=O	11	10

# Next section
SMILES,Vaccinia inh,Vaccinia inh Venus
CNC[C@@H]1OCCCC[C@@H](C)Oc2ccc(NC(=O)C3CCCCC3)cc2C(=O)N([C@@H](C)CO)C[C@H]1C,-7,1
Cc1noc(C)c1NC(=O)N[C@H]1CC[C@H](CC(=O)NCc2ccc(Cl)c(Cl)c2)O[C@H]1CO,3,8
O=C(NCC[C@H]1CC[C@@H](NC(=O)C2CCC2)[C@@H](CO)O1)c1ccc(F)cc1,-4,3
N#C[C@H]1[C@@H](c2ccc(C3=CCCCC3)cc2)[C@H](CO)N1C(=O)Cc1ccncc1,1,-1
CC(C)CC#Cc1cnc2c(c1)C(=O)N([C@@H](C)CO)C[C@@H](C)[C@@H](CN(C)C(=O)c1ccc(F)cc1)O2,-23,-13
CCC(=O)N(C)C[C@H]1Oc2cc(C#C[C@H](C)O)ccc2S(=O)(=O)N([C@@H](C)CO)C[C@@H]1C,15,10
CCC(=O)N(C)C[C@H]1Oc2ncc(C#Cc3ccncc3)cc2C(=O)N([C@@H](C)CO)C[C@H]1C,10,14
COCC(=O)Nc1ccc2c(c1)C(=O)N(C)C[C@@H](OC)[C@H](C)CN(C(=O)Cc1cccnc1)[C@H](C)CO2,10,7
CC(C)NC(=O)N(C)C[C@@H]1OCCCC[C@H](C)Oc2ccc(NC(=O)Nc3ccc(C(F)(F)F)cc3)cc2C(=O)N([C@H](C)CO)C[C@@H]1C,-32,-30
Cc1ccc(CN(C)C[C@H]2OCc3cn(nn3)CCCC(=O)N([C@@H](C)CO)C[C@@H]2C)cc1,1,7
C[C@@H](NC(=O)C[C@H]1C=C[C@H](NC(=O)C2CCC2)[C@@H](CO)O1)c1ccccc1,3,6
COc1ccc(CN(C)C[C@@H]2Oc3ccc(NS(=O)(=O)c4ccc(OC)cc4)cc3CC(=O)N([C@@H](C)CO)C[C@H]2C)cc1,-17,-23
C[C@H](CO)N1C[C@H](C)[C@H](CN(C)C(=O)Nc2cccc3ccccc23)Oc2c(NC(=O)Nc3cccc4ccccc34)cccc2C1=O,-9,3
O=C(C[C@@H]1C[C@@H]2c3cc(NS(=O)(=O)c4ccc(F)cc4)ccc3O[C@@H]2[C@H](CO)O1)NCc1cccnc1,-10,4
O=C(C[C@@H]1C[C@@H]2c3cc(NC(=O)NC4CCCC4)ccc3O[C@@H]2[C@H](CO)O1)NCc1ccc(-c2ccccc2)cc1,10,7
C[C@@H]1CCCCO[C@H](CN(C)C(=O)NC2CCCCC2)[C@@H](C)CN([C@H](C)CO)C(=O)c2cc(NS(=O)(=O)c3ccc(F)cc3)ccc2O1,1,-4
C[C@@H]1CN([C@H](C)CO)C(=O)c2cc(NS(=O)(=O)c3ccc(F)cc3)ccc2O[C@@H](C)CCCCO[C@H]1CN(C)C(=O)Nc1ccccc1,?,·
O=C(C[C@@H]1CC[C@H](NC(=O)CN2CCOCC2)[C@@H](CO)O1)NC1CCCCC1,3,1
COc1ccc(NC(=O)N(C)C[C@@H]2Oc3ccc(NC(=O)C4CC4)cc3CC(=O)N([C@H](C)CO)C[C@@H]2C)cc1,5,7
COc1ccc(NC(=O)Nc2ccc3c(c2)C(=O)N([C@H](C)CO)C[C@H](C)[C@H](CN(C)C(=O)Nc2c(C)noc2C)OCCCC[C@@H](C)O3)cc1,10,0
C[C@@H]1CN([C@H](C)CO)S(=O)(=O)c2ccc(C3=CCCCC3)cc2O[C@@H]1CN(C)C(=O)Cc1ccccc1,?,·
Cc1ccc(-c2cnc3c(c2)C(=O)N([C@H](C)CO)C[C@H](C)[C@H](CN(C)C(=O)Cc2ccccc2)O3)cc1,-19,-8
C[C@@H]1CN([C@@H](C)CO)C(=O)c2cc(-c3ccc(C#N)cc3)cnc2O[C@H]1CN(C)C(=O)c1cccnc1,19,24
Cc1ccc(S(=O)(=O)Nc2ccc3c(c2)C(=O)N([C@H](C)CO)C[C@@H](C)[C@H](CN(C)Cc2ccc(-c4ccccc4)cc2)O3)cc1,?,·
O=C(C[C@@H]1CC[C@@H]2[C@H](COC[C@@H](O)CN2Cc2nccs2)O1)NCc1ccc(F)cc1,11,4
COc1cccc(NC(=O)N(C)C[C@H]2Oc3ncc(C#Cc4ccccc4)cc3C(=O)N([C@H](C)CO)C[C@H]2C)c1,-3,-12
Cc1ccc(S(=O)(=O)NCC[C@H]2CC[C@H](NC(=O)C3CCOCC3)[C@@H](CO)O2)cc1,-7,1
CO[C@H]1CN(C)C(=O)c2ccc(NC(=O)C3CCCCC3)cc2OC[C@H](C)N(C)C[C@H]1C,-7,-8
C[C@H]1CN([C@@H](C)CO)S(=O)(=O)c2ccc(C#CC3CC3)cc2O[C@H]1CN(C)C(=O)Cc1ccncc1,-11,-2
O=C(Cc1cccnc1)N[C@@H]1CC[C@H](CCNS(=O)(=O)c2ccccc2Cl)O[C@H]1CO,5,2
COc1ccccc1C#Cc1cnc2c(c1)C(=O)N([C@@H](C)CO)C[C@H](C)[C@H](CN(C)C)O2,5,-9
Cc1noc(C)c1NC(=O)N(C)C[C@H]1OCCCC[C@@H](C)Oc2ccc(N(C)C)cc2C(=O)N([C@H](C)CO)C[C@@H]1C,11,12
COc1ccc2c3c([nH]c2c1)[C@@H](CO)N(C(C)=O)CC31CCN(Cc2ccccc2Cl)CC1,?,·
OC[C@@H]1[C@@H](c2ccc(-c3ccc(F)cc3)cc2)[C@H]2CN(Cc3ccncc3)CCCCN12,-17,-5
O=C(Nc1ccccc1F)N[C@@H]1CC[C@@H](CCNS(=O)(=O)c2ccccc2)O[C@@H]1CO,11,3
C[C@@H]1CN([C@@H](C)CO)S(=O)(=O)c2ccc(C#CCN(C)C)cc2O[C@H]1CN(C)S(C)(=O)=O,-1,1
O=C(C1CCCC1)N1CC(=O)N2[C@H](C1)[C@H](c1ccc(C#CC3CCCC3)cc1)[C@@H]2CO,-29,-27
C[C@@H]1CN([C@@H](C)CO)C(=O)c2cc(NC(=O)Cn3cnnn3)ccc2O[C@H]1CN(C)S(C)(=O)=O,34,17
O=C(c1ccccc1)N1CC(=O)N2[C@H](C1)[C@H](c1ccc(C#CC3CC3)cc1)[C@@H]2CO,19,-6
CC(C)NC(=O)Nc1ccc2c(c1)C(=O)N(C)[C@H]1CC[C@H](CC(=O)Nc3ccccc3)O[C@@H]1CO2,11,3

# In the list so far, 4 have a cyano group:
SMILES,Vaccinia inh,Vaccinia inh Venus
N#Cc1cccc(-c2ccc(C3[C@@H]4CN(C(=O)C5CCC5)C[C@H]3N4)cc2)c1 (stereo partly drawn),?,9
N#C[C@H]1[C@H](c2ccc(C#Cc3ccccc3F)cc2)[C@H](CO)N1C(=O)c1cccnc1,-28,-24
N#C[C@H]1[C@@H](c2ccc(C3=CCCCC3)cc2)[C@H](CO)N1C(=O)Cc1ccncc1,1,-1
C[C@@H]1CN([C@@H](C)CO)C(=O)c2cc(-c3ccc(C#N)cc3)cnc2O[C@H]1CN(C)C(=O)c1cccnc1,19,24

# Later entries.
SMILES,Vaccinia inh,Vaccinia inh Venus
C[C@@H]1CN([C@H](C)CO)C(=O)c2cc(C3=CCCC3)cnc2O[C@@H]1CN(C)C(=O)Nc1ccc(F)cc1,-1,0
CCCNC(=O)N1CC2(CN(CC3CCOCC3)C2)c2c([nH]c3cc(OC)ccc23)[C@@H]1CO,4,-15
CC(C)C#Cc1ccc([C@H]2[C@@H](C#N)N(C(=O)C3CC3)[C@@H]2CO)cc1,-3,-7
N#C[C@H]1[C@H](c2ccc(-c3cccc(F)c3)cc2)[C@H](CO)N1C(=O)NC1CCCCC1,?,·
Cc1ccc(S(=O)(=O)N(C)C[C@@H]2Oc3ccc(NS(=O)(=O)c4ccc(Cl)cc4)cc3CC(=O)N([C@H](C)CO)C[C@@H]2C)cc1,-10,-12
CC(=O)N[C@H]1CC[C@@H](CCNC(=O)C2CC2)O[C@H]1CO,7,6
C[C@@H]1CN([C@@H](C)CO)C(=O)Cc2cc(NS(=O)(=O)c3ccc(Cl)cc3)ccc2O[C@@H]1CN(C)Cc1ccc(C(=O)O)cc1,4,2
CC(=O)N1[C@@H]2c3ccc(-c4cccc(F)c4)c(=O)n3C[C@H]1[C@H](CO)[C@H]2C(=O)NCCCN(C)C,12,2
CO[C@H]1O[C@H](CO)[C@@H](OC(=O)Nc2ccc(C(F)(F)F)cc2)[C@H](OC(=O)Nc2ccc3c(c2)OCO3)[C@H]1OC(=O)Nc1ccc2c(c1)OCO2,?,·
CO[C@@H]1CN(C)C(=O)c2ccc(NC(=O)C3CC3)cc2OC[C@H](C)N(Cc2ccc(F)cc2)C[C@H]1C,?,·

# Full records as entered above.
# `CO[C@@H]1CN(C)C(=O)c2ccc(NC(=O)C3CC3)cc2OC[C@H](C)N(Cc2ccc(F)cc2)C[C@H]1C` is entered as Vaccinia inh = ?; Vaccinia inh Venus = ·
# `N#C[C@H]1[C@H](c2ccc(-c3cccc(F)c3)cc2)[C@H](CO)N1C(=O)NC1CCCCC1` is entered as Vaccinia inh = ?; Vaccinia inh Venus = ·
# `C[C@@H]1CN([C@@H](C)CO)C(=O)Cc2cc(NS(=O)(=O)c3ccc(Cl)cc3)ccc2O[C@@H]1CN(C)Cc1ccc(C(=O)O)cc1` is entered as Vaccinia inh = 4; Vaccinia inh Venus = 2

# Next part:
SMILES,Vaccinia inh,Vaccinia inh Venus
C[C@@H]1CN([C@@H](C)CO)C(=O)c2cc(C#Cc3ccc(F)cc3)cnc2O[C@H]1CN(C)CC1CCOCC1,?,·
COc1ccc(S(=O)(=O)Nc2ccc3c(c2)C(=O)N([C@H](C)CO)C[C@H](C)[C@@H](CN(C)S(=O)(=O)c2cccs2)O3)cc1,19,11
CO[C@H]1CN(C)C(=O)c2ccc(NS(=O)(=O)c3c(C)noc3C)cc2OC[C@H](C)NC[C@H]1C,19,10
N#Cc1ccc(-c2ccc3c(c2)[C@H]2[C@H](CCN2C(=O)C2CCCCC2)[C@H](CO)N3)cc1,?,·
CC(C)(C)[S@@](=O)N1Cc2cc(C(=O)N3CCOCC3)nc(-c3cccc(-c4ccc(C#N)cc4)c3)c2[C@H]1CCO,9,21
CN1CCN(C(=O)C[C@H]2C[C@H]3c4cc(NC(=O)C5CCOCC5)ccc4O[C@H]3[C@H](CO)O2)CC1,7,7

# Screening results deposited in PubChem BioAssay by Broad Institute.

# An excerpt. The share of hits here may be higher or lower than overall.
